Screening data deposited in PubChem BioAssay by Molecular Libraries Program, Specialized Chemistry Center, University of Kansas.
MgcRacGAP: MgcRacGAP inhibitors via phosphate release, confirmation, orthogonal assay, biochemical, inorganic phosphate detection, Rac1 (AID 652142) | MgcRacGAP/Rac1F28L GTP hydrolysis, Biomol green phosphate; stronger effect = higher value; test concentration not given here; none was called active though about 1 in 100 pass the limit | inhibition, % | 2,400 tested, under 10 active;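 active means inhibition over three standard deviations or about 65%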;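 further: full inhibition control lacks the GAP enzyme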
Active calls of the source: *. This is a subset; rates above refer to the full screens.

MgcRacGAP | smiles
21 | COc1cc(/C=N/n2c(C)nc3ccccc3c2=O)ccc1O
25 | CCN(CC)c1ccc(NC(=O)CN2CCN(c3ccccn3)CC2)cc1
21 | COc1ccc(NCCC(O)c2ccc(Cl)cc2)cc1 (stereo not drawn)
-1 | COc1cc(/C=N/NC(=O)C(=O)NCC2CCCO2)ccc1O (stereo not drawn)
21 | CN(c1ccccc1)c1ccc(/C=N/N2CCOCC2)cc1
9 | COc1cc(/C=N/NC(=O)c2cccc(N3CCCC3=O)c2)ccc1O
24 | COc1ccc(NCc2nnc(SCC(=O)Nc3ccccc3OC)o2)cc1
27 | O=C(N/N=C/c1ccc(O)c(O)c1)c1ccc(-n2cnnn2)cc1
26 | CCN(CC)c1ccc(NC(=O)CCN2C(=O)c3ccccc3S2(=O)=O)c(C)c1
0 | O=C(Oc1ccc2c(c1)OCO2)c1ccc(Br)c(S(=O)(=O)N2CCOCC2)c1
26 | Cc1[nH]nc(-c2ccc(O)cc2O)c1Oc1ccccc1
26 | OC(CON=C1c2ccccc2-c2ccccc21)CN1CCNCC1 (stereo not drawn)
73 | COC(=O)c1cccc(-n2sc3ccccc3c2=O)c1
38 | Nc1ccc(Cn2ccc3c4c(N)nc(N)nc4ccc32)cc1
29 | COc1cc(/C=N/Nc2ncc(C(F)(F)F)cc2Cl)cc(OC)c1O

By substructure, those above with four or more nitrogen atoms
MgcRacGAP | smiles
25 | CCN(CC)c1ccc(NC(=O)CN2CCN(c3ccccn3)CC2)cc1
24 | COc1ccc(NCc2nnc(SCC(=O)Nc3ccccc3OC)o2)cc1
27 | O=C(N/N=C/c1ccc(O)c(O)c1)c1ccc(-n2cnnn2)cc1
38 | Nc1ccc(Cn2ccc3c4c(N)nc(N)nc4ccc32)cc1

Later entries:
MgcRacGAP | smiles
52 | O=C(O)C1Nc2c(O)cc(Cl)c([N+](=O)[O-])c2C2C=CCC12 (stereo not drawn)
18 | CCN(c1ccccc1)S(=O)(=O)c1ccc(OC)c(NC(=O)CNCCc2ccccc2)c1
35 | C=CCn1c(CNc2ccccc2)nnc1SCC(=O)N/N=C/c1ccc(O)cc1O
23 | COc1ccc(C2NC(=O)C(C#N)=C(S)N2c2ccc(C)cc2)cc1OC (stereo not drawn)
31 | CCCCN(CC)CCNC(=O)CCC(=O)Nc1ccc2nc(N3CCN(C)CC3)cc(C)c2c1
21 | Oc1ccc(C=NNc2ccccn2)c(O)c1
34 | CN(C)c1ccc(N/C=C/C(=O)C(C)(C)C)cc1
21 | CCc1cc(/C(Cc2csc(C)n2)=N/O)c(O)cc1O
29 | COc1cccc(OC)c1C(=O)N1CCN(Cc2ccc3c(c2)OCO3)CC1
13 | COc1ccc(NC2CCCN(C(=O)CCC3=NNC(=O)CC3)C2)cc1 (stereo not drawn)
27 | CCCCn1c(SCC(=O)c2ccc(O)c(O)c2)nc2ccsc2c1=O
2 | Cc1c(O)ccc2c3c(c(=O)oc12)CCCC3
50 | COC1=C(Br)C(=O)c2nc(C)ccc2C1=O
25 | Cc1ccc(Cl)c(OCCCN(C)Cc2ccccc2)c1
33 | CN=c1scc(C)n1/N=C/c1ccc(O)cc1O

Brought forward from above: 6 compounds; new compounds follow.
MgcRacGAP | smiles
13 | COc1ccc(NC2CCCN(C(=O)CCC3=NNC(=O)CC3)C2)cc1 (stereo not drawn)
27 | CCCCn1c(SCC(=O)c2ccc(O)c(O)c2)nc2ccsc2c1=O
2 | Cc1c(O)ccc2c3c(c(=O)oc12)CCCC3
50 | COC1=C(Br)C(=O)c2nc(C)ccc2C1=O
25 | Cc1ccc(Cl)c(OCCCN(C)Cc2ccccc2)c1
33 | CN=c1scc(C)n1/N=C/c1ccc(O)cc1O
0 | CSc1ccccc1NC(=O)CNCCCN1CCOCC1
2 | Cc1cc(N(C)C)ccc1N=Nc1ccc(N)cc1
58 | O=C(O)c1ccc2nc(-c3ccco3)c(-c3ccco3)nc2c1
24 | COc1ccc(Br)cc1CNc1ccc(O)cc1
12 | O=C(CSc1nnc(C2CC2)n1C1CC1)N1CCN(c2ccc(O)cc2)CC1
20 | CCc1nn(C(C)C(=O)N2CCN(c3ccc(OC)cc3)CC2)c(=O)c2cc3occc3n12 (stereo not drawn)
45 | O=C1NN(c2ccccc2)C(=O)C1=Cc1ccccc1O
28 | COc1ccc(C=NNC(=O)c2cc(C)oc2C)cc1O
28 | Cc1ccc(CCC(=O)Nc2ccc(N(C)C)cc2)o1
21 | COC(=O)NCC(c1ccc2c(c1)OCO2)N1CCN(c2ccc(OC)cc2)CC1 (stereo not drawn)
29 | Fc1ccc(CNCc2ccccc2Cl)cc1
15 | O=C(CN1CCN(c2ccc(O)cc2)CC1)Nc1ccc2c(c1)OCCCO2
32 | CN(C)c1ccc(C=Cc2cnccn2)cc1
24 | OCCN1CCN(C(=S)Nc2cccc(C(F)(F)F)c2)CC1
35 | CCOc1cc(CNc2ccc(N3CCCCC3)cc2)cc(Br)c1OCC(=O)NC(C)(C)C

Reformatted: entries from further up
molecule | MgcRacGAP
COc1ccc(Br)cc1CNc1ccc(O)cc1 | 24
O=C(CSc1nnc(C2CC2)n1C1CC1)N1CCN(c2ccc(O)cc2)CC1 | 12
CCc1nn(C(C)C(=O)N2CCN(c3ccc(OC)cc3)CC2)c(=O)c2cc3occc3n12 (stereo not drawn) | 20
O=C1NN(c2ccccc2)C(=O)C1=Cc1ccccc1O | 45
COc1ccc(C=NNC(=O)c2cc(C)oc2C)cc1O | 28
Cc1ccc(CCC(=O)Nc2ccc(N(C)C)cc2)o1 | 28

Remaining list, next part.
MgcRacGAP | smiles
19 | Cc1ccccc1OCCN1CCCC1
11 | NC(=S)N/N=C/c1cccc(O)c1O
34 | Nc1n[nH]c(N)c1N=Nc1ccc2c(c1)OCO2
60 | COc1ccc2[nH]c3c(C)c4cc[n+](C)cc4c(C)c3c2c1
22 | CCCCN(C)CCNC(=O)CSCc1ccc(C)cc1
13 | COc1cc(/C=C/c2sc3ccccc3[n+]2CCCS(=O)(=O)[O-])ccc1O
31 | Cc1ccc(/C=C2/C(=O)ON=C2c2ccccc2)o1
23 | NC(=S)NNc1ccnc2cc(Cl)ccc12
22 | COc1cc(C)c2sc3ccccc3c(=O)c2c1NCCN(C)C
25 | Cc1ccc2nc(N(CCCN(C)C)C(=O)c3ccc4ncsc4c3)sc2c1
34 | Cc1ccc(S(=O)(=O)/N=S(/c2ccccc2)C(C)C)cc1 (stereo not drawn)
8 | CCOc1cc(/C=N\NC(=O)c2c(C)nc3ccccn23)ccc1O
23 | CC(=Nc1ccc(O)cc1)c1sc2ccccc2c1O
24 | CCN(Cc1ccncc1)Cc1ccc(OC)c(OC)c1
24 | Cc1cc(-c2ccccc2)nc(N/N=C/c2ccc(N(C)C)cc2)n1

In a second layout: results already given.
NC(=S)NNc1ccnc2cc(Cl)ccc12
  MgcRacGAP: 23
COc1cc(C)c2sc3ccccc3c(=O)c2c1NCCN(C)C
  MgcRacGAP: 22
Cc1ccc2nc(N(CCCN(C)C)C(=O)c3ccc4ncsc4c3)sc2c1
  MgcRacGAP: 25
Cc1ccc(S(=O)(=O)/N=S(/c2ccccc2)C(C)C)cc1 (stereo not drawn)
  MgcRacGAP: 34

More records
MgcRacGAP | smiles
22 | CCC(CC)N1CCN(C(=O)c2cccc(Cl)c2)CC1
21 | Cc1ccc(CNc2ncc(-c3ccccc3)n2C)o1
34 | COc1ccc(-c2ccc(CCC(=O)O)n2-c2ccc(O)cc2)cc1
34 | CN(C)c1ccc(-n2cccc2/C=C/[N+](=O)[O-])cc1
13 | COc1ccc(Br)cc1CN1CCN(C(=O)c2ccc(F)cc2)CC1
1 | COc1cc(/C=N/n2c(-c3cc(C)[nH]n3)n[nH]c2=S)cc(OC)c1OC
26 | COc1cc(/C=C2\SC(N)=NC2=O)cc(Cl)c1O
24 | CC(C)(C)CC(=O)Nc1ccc(Nc2ccccc2)cc1
26 | Oc1ccc(NC(=S)Nc2ccc(O)cc2)cc1
36 | Nc1ccc(N2CCN(c3ccc(Cl)c(Cl)c3)CC2)cc1
28 | COc1ccc(-c2cnnc(N/N=C/c3ccc(O)c(O)c3)n2)cc1
3 | CC(=O)NC(Cc1ccccc1)C(=O)Oc1ccc2ccccc2c1 (stereo not drawn)
22 | Cn1c(=O)[nH]c(=O)c2c1[nH]c(=S)n2Cc1ccccc1
12 | S=c1[nH]nc(-c2ccncc2)n1/N=C/c1ccccc1
29 | O=C1c2c([N+](=O)[O-])cc([N+](=O)[O-])cc2S(=O)N1Cc1ccccc1 (stereo not drawn)
22 | CC(C)CN(Cc1c(O)ccc2ccccc12)CC(C)C
26 | CC1CN(CCCCN2C(=O)c3ccccc3C2=O)CC(C)O1 (stereo not drawn)
2 | C=CCc1cc(Cl)ccc1OCCNCCN1CCOCC1
23 | O=c1ccn(-c2ccccc2)[nH]1
53 | COc1ccc2nc(C)cc(N/N=C/c3cccc(OC)c3O)c2c1
1 | COc1ccccc1CNCC(=O)Nc1ccccc1-n1cccc1
16 | CN(C)c1ccc(Nc2ccc([N+](=O)[O-])cn2)cc1
27 | COc1cc(/C=N/Nc2ccc(C(=O)O)cc2)ccc1O
7 | CN(C)CCCNc1ncnc2sc(-c3ccccc3)cc12
0 | CCOc1cc(-c2cc(-c3ccccc3)nc(N)c2C#N)ccc1O
